High-throughput results deposited in PubChem by ICCB-Longwood Screening Facility, Harvard Medical School.
GIV Gai3 FP = GIV-Galpha-i interaction inhibition | Galpha-i3/FITC-GIV peptide fluorescence polarization, 90 min; stronger effect = lower value; scaled: aluminum fluoride 0%, vehicle 100% | percent of control (FP), % (test concentration not listed) | 210,000 compounds, 0.42% hits;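 active = replicate mean at 85% of control or lower, very high polarization wells dropped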;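 also: wells of about 15 µL received 100 nL stock; the first replicate is given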
Target sequence (P08753 whole entry, looked up): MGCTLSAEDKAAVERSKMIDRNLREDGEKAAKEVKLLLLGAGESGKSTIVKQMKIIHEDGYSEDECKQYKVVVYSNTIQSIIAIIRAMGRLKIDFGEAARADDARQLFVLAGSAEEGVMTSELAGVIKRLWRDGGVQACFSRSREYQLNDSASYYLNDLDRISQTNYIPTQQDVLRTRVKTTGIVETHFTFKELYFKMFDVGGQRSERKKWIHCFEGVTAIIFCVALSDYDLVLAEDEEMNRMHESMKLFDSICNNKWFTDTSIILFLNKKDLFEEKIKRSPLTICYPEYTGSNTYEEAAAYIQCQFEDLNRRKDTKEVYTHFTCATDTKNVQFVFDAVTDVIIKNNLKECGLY
HCMV UL50-53 inh = inhibitors of HCMV UL50-UL53 nuclear egress complex interaction; AID 1918969; HTRF UL50-UL53 interaction, normalized percent inhibition; 190,000 compounds, 0.15% hits; inhibition, % (concentration not given with the values);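 active = both replicates at 50% or more, plus weaker picks with an unusually low signal ratio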;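 also: stock transfer was 100 nL into about 20 µL; 0% = negative control wells and 100% = wells with untagged competitor protein; inactives centre near -12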
Sa growth inh = blocks Staphylococcus aureus growth | AID 720641 | 170,000 compounds, 0.53% hits | S. aureus RN4220 growth, OD600, 20 h, 42 °C; stronger effect = lower value | relative growth, % (concentration not given with the values);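 active = growth at 42 °C up to 50% and 20 or more points under that at 30 °C, or under 10% at both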;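 also: 300 nL library stock went into each well; scaled to the means of positive and negative controls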
Sa growth inh second temp = further read-out of Sa growth inh, marked with its call; relative growth, %; measured here: growth at 30 °C;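 optical density after 20 h as mean of two plates; 100% = untreated growth and lower means inhibition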
Starred values were filed as active, the others as inactive; / = no result given; & = joins results of further samples.

SMILES	GIV Gai3 FP	HCMV UL50-53 inh	Sa growth inh	Sa growth inh second temp
COc1ccc(CCNC(=O)CCCn2c(=O)c3ccccc3n(Cc3ccccc3C#N)c2=O)cc1OC	107	-4	109	92
Cc1cc(C)c(S(=O)(=O)Nc2cc3[nH]c(=O)[nH]c3cc2Cl)cc1C	106	-23	/	/
CCCCS(=O)(=O)c1nc(-c2ccc(Br)cc2)cc(-c2ccccc2)c1C#N	109	-17	99	92
CSc1nc(N)n(-c2cc(Cl)cc(Cl)c2)n1	104	-11	95	82
Cc1cccc(NC(=O)c2ccc(CNS(=O)(=O)c3ccc4c(c3)C(C)(C)C(=O)N4C)cc2)c1	98	/	90	75
CC(=O)Oc1ccccc1C(=O)OC1=C(C(=O)c2ccccc2)N(C)S(=O)(=O)c2ccccc21	104	-16	/	/
O=C(O)c1c(CNCc2cccs2)c2ccccc2n1Cc1ccccc1	107	2	111	101
O=C1CCc2cc(S(=O)(=O)NC(C(=O)NC3CCCC3)c3ccccc3)ccc2N1 (configuration not stated)	102	-6	107	92
CCN(CC)CCSc1nc2ccccc2[nH]1	104	0	93	92
COc1cc(OC)c(C(=O)NC(C)C2CCCO2)cc1OC (configuration not stated)	101	-20	101	87
COc1ccc(Nc2nc(N)c3cc(OC)c(OC)cc3n2)cc1	105	-2	112	65
CN(Cc1ccccc1)S(=O)(=O)c1ccc2c(c1)SCC(=O)N2	101	/	102	84
Cc1ccc(C)c(NC(=O)C(c2ccccc2)N2CCCCC2C(N)=O)c1 (configuration not stated)	/	-7	105	91
O=C(O)c1sc(C(=O)O)c(-c2ccco2)c1-c1ccco1	101	3	100	104
CC(C)c1[nH]nc2oc(=N)c(C#N)c(-c3c(O)[nH]c4ccc(Br)cc34)c12	102	0	92	93
Cc1csc2nc(COC(=O)c3ccc(F)cc3)cc(=O)n12	105	/	116	86
O=C(NC1CCCc2ccccc21)c1ncoc1-c1cccs1 (configuration not stated)	116	-9	89	83
CC1(C)CC(=S)C=C(N2CCOCC2)C1	/	-21	96	94
C=C1c2ccccc2NC(=O)N1c1ccccc1	96	-1	108	113
O=C(CCN1C(=O)/C(=C/c2cccc(Br)c2)SC1=S)Nc1nccs1	100	14	/	/
CSc1ncc(C(=O)OC(C)c2nc3ccccc3c(=O)[nH]2)n1-c1ccc(F)cc1 (configuration not stated)	/	-20	117	90
COc1ccc(-c2cc(C(=O)Nc3cccc([N+](=O)[O-])c3)c3ccccc3n2)cc1OC	103	-26	/	/
Clc1ccc(Cn2nnc(-c3ccccc3)n2)cc1	/	-10	100	91
CCn1c(-c2cc(OC)ccc2OC)csc1=Nc1ccc(O)cc1	/	-4	81	83
O=C(Cc1ccsc1)N1CCCC(c2nc3c(nnn3Cc3cccc(F)c3)c(=O)[nH]2)C1 (configuration not stated)	112	8	/	/
COc1ccc(-c2cc3c(=O)n(CC(=O)N4CCN(C5CCCCC5)CC4)ncn3n2)cc1	102	-14	/	/
COc1ccc(OCCNS(=O)(=O)Cc2ccccc2)cc1	/	3	95	93
COc1ccc(Nc2nnc(SC3CCOC3=O)s2)cc1 (configuration not stated)	/	-5	99	72
Cc1cc(C)c(N=Cc2sccc2C)c(C)c1	/	-13	93	89
O=c1[nH]c2cc3c(cc2[nH]1)OCCO3	100	-14	88	83
Cc1cc(C(Nc2ccccn2)c2ccsc2)c(NC(=O)c2ccccc2)s1 (configuration not stated)	105	-6	/	/
O=C(CCc1nc2cccnc2n1-c1ccccc1)Nc1ccc2c(c1)OCO2	103	-11	87	84
CCCn1c(=O)sc2cc(NC(=O)c3ccccc3Cl)ccc21	104	-9	112	74
CN1CCCN(Cc2cc(C(C)(C)C)c(O)c(C(C)(C)C)c2)CC1	103	6	102	108
CC1CC(NC(=S)Nc2ccc(I)cc2F)CC(C)(C)C1 (configuration not stated)	100	-25	108	83
CCOc1cccc(NC(=O)C2CC(=O)N(C)C(=Nc3ccc(C)c(Cl)c3)S2)c1 (configuration not stated)	101	-25	/	/
COc1ccc(-c2nc3scc(CCNS(=O)(=O)c4ccc(Oc5ccccc5)cc4)n3n2)cc1OC	107	/	100	100
CCCCOc1cccc(C2c3c(-c4cc(C)ccc4O)n[nH]c3C(=O)N2CCOC)c1 (configuration not stated)	102	-50	106	87
COc1ccc(NC(=O)c2cc(C3CC3)nc3c2c(C)nn3-c2ccccc2)cc1OC	107	/	138	94
COC(=O)c1cn(CC(=O)NC2CCCCCC2)c2ccccc12	107	9	79	82
Cc1ccc(Nc2nc(N)nc(CN3CCC(Cc4ccccc4)CC3)n2)cc1	104	/	91	35
COc1cc(OC)c(NC(=O)N2CCc3c([nH]c4ccccc34)C2c2ccccc2F)cc1Cl (configuration not stated)	103	/	106	103
Cc1ccc(CNC(=O)CCCN2C(=O)CCn3nc(-c4cccn4C)cc32)cc1	114	/	102	92
CCCCC1CC(C)(C(=O)Nc2ccc(S(N)(=O)=O)cc2)OC1=O (configuration not stated)	102	-23	101	82
O=C(Nc1ccc2c(c1)OCCO2)C1CCCN(c2ccnc(-c3ccc(F)cc3)n2)C1 (configuration not stated)	105	-23	/	/
Cc1ccc(-n2nc(CO)c(C(=O)NCCCc3ccccc3)n2)cc1C	101	14	103	97
CC(OC(=O)c1ccccc1Nc1ccc(SC(F)F)cc1)C(N)=O (configuration not stated)	/	-16	71	77
Nc1nc(-c2sccc2Cl)cs1	93	-16	/	/
COc1ccc(N2CCN(C(=O)C34CC5CC(CC(C5)C3)C4)CC2)cc1	/	-30	100	86
COC(=O)c1ccc(NC(=O)C2=Cc3ccc(C)cc3OC=C2)cc1	104	-23	/	/
COc1ccc(-c2noc(-c3ccc(C)cc3Cl)n2)cc1OC	107	-16	98	104
CC(C)CC(C(=O)NCc1ccc(F)cc1)N1Cc2ccccc2C1=O (configuration not stated)	98	/	100	93
COc1cccc(C(Nc2nc(C)cc(C)n2)c2c(NC(=O)c3ccccc3)sc3c2CCCC3)c1 (configuration not stated)	108	-9	/	/
Cc1cc(F)ccc1NC(=O)c1[nH]c(C)c(S(=O)(=O)N2CCCC2)c1C	103	-35	/	/
CCOc1cc(/C=N/NC(=O)C(OC)c2ccccc2)ccc1O (configuration not stated)	106	-53	105	60
Cc1c2cnn(-c3ccccc3)c(=O)c2c(C)n1C(C)C(=O)NCc1ccccn1 (configuration not stated)	116	-14	117	93
c1ccc(-c2noc(-c3ccc(Nc4ccc5c(c4)OCO5)nn3)n2)cc1	99	-36	/	/
O=C(CCN(Cc1ccco1)S(=O)(=O)c1ccc(Cl)cc1)Nc1ccccc1	98	-18	78	86
CC(=O)N1CCc2cc(S(=O)(=O)NC(Cc3ccccc3)C(=O)Nc3ccc(C)cc3C)ccc21 (configuration not stated)	106	-25	99	88
COc1cccc(C(=O)Nc2sccc2C#N)c1	/	8	94	94
Next part
SMILES	GIV Gai3 FP	HCMV UL50-53 inh	Sa growth inh	Sa growth inh second temp
Cc1c(C)n(CC(O)CNCc2ccco2)c2ccccc12 (configuration not stated)	99	-5	112	119
COc1cccc(N2CCN(C(=O)CN3C(=O)COc4ccc(S(=O)(=O)N5CCC(C)CC5)cc43)CC2)c1	107	-12	105	85
O=C1C2C3C=CC(C3)C2C(=O)N1CN(Cc1ccccc1)CN1C(=O)C2C3C=CC(C3)C2C1=O (configuration not stated)	102	-50	108	94
COc1cc(Cc2nnc(C(=O)NCc3ccccc3)o2)cc(OC)c1OC	101	/	99	90
Cc1cccc(NC(=O)CC2OCCN(Cc3ccccc3)C2=O)c1 (configuration not stated)	100	-19	110	95
Cc1nn(-c2ccccc2)cc1/C=N/NC(N)=S	110	-38	52	71
CCOc1ccc(-c2nc(-c3cc(C)n(C)c3C)cs2)cc1OC	/	-31	112	43
Cc1ccc(NC(=O)c2oc3ccccc3c2NC(=O)Cc2ccccc2)cc1	103	-29	107	83
CCc1c(C#N)c(SC)nc(C)c1C(=O)Nc1ccccc1	107	-4	104	80
Cc1ccc(Sc2ccc(/C=C(\C#N)C(N)=O)o2)cc1	106	-74	104	88
COc1cc2c(cc1OC)C(C)N(C(=O)c1noc3c1CCc1sccc1-3)CC2 (configuration not stated)	104	-24	/	/
CN1C(=O)COc2ccc(-c3csc(NC(=O)C4CCCCC4)n3)cc21	99	-1	/	/
C=CCNc1ncccc1-c1nc(-c2ccc(Cl)cc2)no1	97	-1	/	/
O=c1oc2ccccc2c(Cl)c1CN1CCCC1	106	/	79	44
O=C(O)/C=C/c1cc(Cl)c2c(c1)OCO2	/	-56	99	84
CC(OC(=O)c1ccccc1Oc1ccccc1)C(=O)NC1CC1 (configuration not stated)	/	-20	79	83
O=C(Nc1ccc(OCC(O)Cn2c3ccccc3c3ccccc32)cc1)c1ccccc1 (configuration not stated)	103	/	95	74
Cc1nc(Nc2ccc(F)cc2)[nH]c(=O)c1Br	102	-14	/	/
COc1cc2nc(N3CCCN(C)CC3)nc(NC3CCN(Cc4ccccc4)CC3)c2cc1OC	104	8&2&2&-7	/	/
CCn1nc(C(=O)OCc2csc(C)n2)c2ccccc2c1=O	/	-22	89	90
Cc1ccc(/C=C/C(=O)O)s1	/	-52	99	88
CC(SC1=Nc2ccccc2C2=NC(C(C)C)C(=O)N12)C(=O)Nc1ccccc1 (configuration not stated)	103	-19	/	/
CCn1c(=NC(=O)c2ccc(OC(C)C)cc2)sc2cc3c(cc21)OCO3	101	-9	94	87

An excerpt from above in order of heavy-atom count, largest number first.
SMILES	GIV Gai3 FP	HCMV UL50-53 inh	Sa growth inh	Sa growth inh second temp
COc1cccc(N2CCN(C(=O)CN3C(=O)COc4ccc(S(=O)(=O)N5CCC(C)CC5)cc43)CC2)c1	107	-12	105	85
COc1cc2nc(N3CCCN(C)CC3)nc(NC3CCN(Cc4ccccc4)CC3)c2cc1OC	104	8&2&2&-7	/	/
CC(=O)N1CCc2cc(S(=O)(=O)NC(Cc3ccccc3)C(=O)Nc3ccc(C)cc3C)ccc21 (configuration not stated)	106	-25	99	88
O=C1C2C3C=CC(C3)C2C(=O)N1CN(Cc1ccccc1)CN1C(=O)C2C3C=CC(C3)C2C1=O (configuration not stated)	102	-50	108	94
O=C(Nc1ccc(OCC(O)Cn2c3ccccc3c3ccccc32)cc1)c1ccccc1 (configuration not stated)	103	/	95	74
Cc1ccc(NC(=O)c2oc3ccccc3c2NC(=O)Cc2ccccc2)cc1	103	-29	107	83
COc1cc(Cc2nnc(C(=O)NCc3ccccc3)o2)cc(OC)c1OC	101	/	99	90
CCn1c(=NC(=O)c2ccc(OC(C)C)cc2)sc2cc3c(cc21)OCO3	101	-9	94	87
CN1C(=O)COc2ccc(-c3csc(NC(=O)C4CCCCC4)n3)cc21	99	-1	/	/
Cc1cccc(NC(=O)CC2OCCN(Cc3ccccc3)C2=O)c1 (configuration not stated)	100	-19	110	95
CCOc1ccc(-c2nc(-c3cc(C)n(C)c3C)cs2)cc1OC	/	-31	112	43
CCn1nc(C(=O)OCc2csc(C)n2)c2ccccc2c1=O	/	-22	89	90
C=CCNc1ncccc1-c1nc(-c2ccc(Cl)cc2)no1	97	-1	/	/
Cc1ccc(Sc2ccc(/C=C(\C#N)C(N)=O)o2)cc1	106	-74	104	88
COc1cccc(C(=O)Nc2sccc2C#N)c1	/	8	94	94
Cc1nc(Nc2ccc(F)cc2)[nH]c(=O)c1Br	102	-14	/	/
O=C(O)/C=C/c1cc(Cl)c2c(c1)OCO2	/	-56	99	84
Cc1ccc(/C=C/C(=O)O)s1	/	-52	99	88

A different layout for part of the listing above:
Order of results: GIV Gai3 FP	HCMV UL50-53 inh	Sa growth inh	Sa growth inh second temp
COc1ccc(-c2noc(-c3ccc(C)cc3Cl)n2)cc1OC
 : 107	-16	98	104
CC(C)CC(C(=O)NCc1ccc(F)cc1)N1Cc2ccccc2C1=O (configuration not stated)
 : 98	/	100	93

No enrichment for hits; about 0.83% have a hit in one of these screens.
